# Assay outcomes from PubChem.
# hNpr1 antagonist: blocks ANP-stimulated signaling of human Npr1 receptor. Potency, µM (series often up to 46.3 µM), for inactives: top-dose activity change, negative = inhibition, actives largely listed as inhibitors. AID 1347048. P16066. 1.6% of 76,000 active. HEK293 hNpr1 GloSensor cGMP, ANP-stimulated luminescence; active = well fitted inhibition curve with a large enough effect; inconclusive = small, poorly fitted or top-dose-only effect; inactive = no such curve, though single readings can be large or run the other way;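 also: nearly all actives have a fitted effect of over 60% in size; nearly all hits also lower the signal before the agonist is added; a reference antagonist and vehicle were the controls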
# Target sequence (P16066 whole entry, looked up): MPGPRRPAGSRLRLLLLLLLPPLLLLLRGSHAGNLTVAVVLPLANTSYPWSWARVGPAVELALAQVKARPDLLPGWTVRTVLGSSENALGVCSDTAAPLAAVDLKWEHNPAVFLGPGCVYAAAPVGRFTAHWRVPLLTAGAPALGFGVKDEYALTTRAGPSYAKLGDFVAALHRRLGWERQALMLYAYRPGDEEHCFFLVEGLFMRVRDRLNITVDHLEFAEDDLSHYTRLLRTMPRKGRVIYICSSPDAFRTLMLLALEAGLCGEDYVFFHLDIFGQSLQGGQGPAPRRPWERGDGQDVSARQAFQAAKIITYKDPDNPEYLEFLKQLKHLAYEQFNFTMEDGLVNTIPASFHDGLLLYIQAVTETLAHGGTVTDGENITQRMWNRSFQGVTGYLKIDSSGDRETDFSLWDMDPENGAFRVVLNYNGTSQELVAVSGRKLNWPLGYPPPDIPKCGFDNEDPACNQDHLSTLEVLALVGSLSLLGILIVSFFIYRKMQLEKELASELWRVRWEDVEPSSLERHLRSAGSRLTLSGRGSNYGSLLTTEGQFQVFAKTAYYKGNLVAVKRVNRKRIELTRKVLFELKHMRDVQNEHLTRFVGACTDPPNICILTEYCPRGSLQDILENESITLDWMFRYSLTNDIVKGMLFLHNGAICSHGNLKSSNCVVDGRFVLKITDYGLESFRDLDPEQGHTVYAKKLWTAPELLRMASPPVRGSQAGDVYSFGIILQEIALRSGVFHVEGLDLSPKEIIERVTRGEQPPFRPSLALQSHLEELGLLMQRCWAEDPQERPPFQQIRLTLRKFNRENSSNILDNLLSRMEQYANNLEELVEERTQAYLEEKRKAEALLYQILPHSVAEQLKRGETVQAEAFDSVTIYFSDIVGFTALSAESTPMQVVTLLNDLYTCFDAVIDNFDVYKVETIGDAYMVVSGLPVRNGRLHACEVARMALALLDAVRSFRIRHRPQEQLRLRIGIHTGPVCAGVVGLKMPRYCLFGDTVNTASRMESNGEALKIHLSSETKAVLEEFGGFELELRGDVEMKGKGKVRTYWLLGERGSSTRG
#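 Compound pre-incubated 30 min at room temperature on GloSensor-loaded HEK293 cells stably carrying hNpr1 and the pGS-40F cGMP biosensor. Stimulation uses hNppA at 0.1 nM final; luminescence is taken at baseline and 20 min post-agonist.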
# Starred values were filed as active, the others as inactive; ? = inconclusive; [ ] = remark or other dose. % is scaled to controls: 0 for no effect and ±100 for the full control effect; potency is read from the fitted curve at half-maximal effect. This is a subset (hit frequency here may not be typical).
no. | hNpr1 antagonist | Compound
1 | 0.1% | CN(C)CCOc1ccccc1-c1ccc(C#N)cc1
2 | 21.5%[70.6 µM] | COc1cccc(N2CC(C(=O)NCc3ccc(F)cc3)NC2=O)c1 (stereo not drawn)
3 | -0.9% | COc1ccc(-c2noc(-c3cccn3CC(=O)N3CCOc4ccc(C)cc43)n2)cc1F
4 | -11.4% | COCCNC(=O)CCc1c(C)nn(-c2ccccc2)c1Oc1ccc(F)cc1F
5 | 5.2% | C[C@@H](O)[C@H](N)C(=O)N1CCc2onc(-c3cccc4ccccc34)c2C1
6 | -1.2%[70.6 µM] | O=C(C[C@@H]1C[C@H]2O[C@H](CNCc3ccccc3Cl)[C@@H](O)[C@H]2O1)N1CCOCC1
7 | 4.3% | Cn1nc(-c2nncn2CC2CC2)c2c1CCN(C(=O)CC1CCCC1)C2
8 | 1.6% | COCC(=O)N(C[C@H]1O[C@@H](CC(=O)NC2CC2)[C@H](O)[C@@H]1O)C[C@H]1O[C@@H](CC(=O)NC2CC2)[C@H](O)[C@@H]1O
9 | 1.4% | COc1ncc(CN2CCc3c(n(CCOc4ccccc4)n(-c4ccccc4)c3=O)C2)cn1
10 | 0.0% | O=C(c1ccccn1)N1CCC2(CC1)CC(OCC1CC1)CCO2 (stereo not drawn)
11 | -17.8% | O=C1NCCCCCCN(Cc2ccncc2)[C@@H]2CN(C(=O)Nc3ccccc3)CC[C@H]12
12 | 3.9%[70.6 µM] | O=c1cc(N2CCOCC2)oc2c(NCc3cnccn3)nccc12
13 | -13.1% | CN1CCC(Oc2nccnc2N2CCc3ccccc3C2)C1 (stereo not drawn)
14 | 0.0% | COc1ccc(Cn2c(=O)c(-c3noc(C)n3)c3n(c2=O)CCCC3)cc1F
15 | -0.8% | NC(=O)NCC(=O)N1CCCC(Nc2ccc3c(c2)OCCO3)C1 (stereo not drawn)

# Next part
no. | hNpr1 antagonist | Compound
16 | 1.1%[70.6 µM] | C#CCN(C)C(=O)[C@@H]1CCCN1[C@H](CC(C)C)C(=O)NC
17 | 4.3%[70.6 µM] | CN1CCN([C@H]2[C@@H]3OC[C@@H](O3)[C@@H](NC(=O)Nc3ccccc3)[C@@H]2O)CC1
18 | 6.7% | CC(C)c1noc(C2CCCN(C(=O)C3CC3)CCC(=O)NCC2)n1 (stereo not drawn)
19 | 1.8% | O=C(CN1CCN(c2ncccn2)CC1)NCCc1nc(-c2cccnc2)no1
20 | 2.4% | Cc1ccoc1C(=O)N1CCCn2ccnc2C1c1cnn(C)c1 (stereo not drawn)
21 | 9.6% | CCCOC(=O)N1CCCC2(CCC(=O)N(Cc3ccccc3)C2)C1 (stereo not drawn)
22 | -8.2% | Cc1ccc(C(=O)N2CCC3(CC2)NC(=O)N(Cc2ccccc2)C3=O)cc1F
23 | 3.7% | COc1ccc(-c2[nH]ncc2CN2CCCN(S(=O)(=O)c3ccccc3)CCC(=O)NCC2)cc1
24 | 5.5% | COc1cc(OC)c(C(=O)N2Cc3cnc(CC(C)C)nc3C2)cc1OC
25 | -13.1% | Cc1cc(C(=O)N2CCCCCCNC(=O)[C@@H]3C[C@@H](c4nc(Cc5ccccc5)no4)C[C@@H]32)n(C)n1
26 | 2.3% | O=C(c1ccoc1)N1CCCC1c1nc(C2CCOCC2)no1 (stereo not drawn)
27 | -4.4% | Cc1ccc(S(=O)(=O)N2CC(C(=O)NC3CCCCC3)C3(CCOCC3)C2)cc1 (stereo not drawn)
28 | 0.6% | CC(C)N1C[C@H](C(=O)NCCCc2ccccc2)[C@H](C(=O)O)C1
29 | 8.9%[70.6 µM] | COCC(=O)NC[C@H]1OC[C@@H](NCc2ccc(C)cc2)[C@@H]1O
30 | 5.8% | CCN(C(=O)c1ccc2c(c1)N(S(C)(=O)=O)CC2)c1ccccc1

# Continuation.
no. | hNpr1 antagonist | Compound
31 | -13.7%[70.6 µM] | Fc1ccc2nc(CO[C@H]3CN(Cc4ccccc4)C[C@H]3F)[nH]c2c1
32 | 5.3% | CC(C)(C)C(=O)Nc1nc2c(s1)C[C@@H]1[C@](C)(CO)[C@H](O)CC[C@@]1(C)[C@@H]2CC(=O)NC1CC1
33 | 14.3% | O=C(NC1CC(c2nnc(CO)n2C2CC2)C1)c1scc2c1OCCO2 (stereo not drawn)
34 | -1.7% | O=C(Nc1ccc(N2CCOCC2)cc1)C1CCN(c2cn[nH]c(=O)c2)C1 (stereo not drawn)
35 | -2.2% | COc1ccc(-c2nn(-c3ccccc3C)cc2CN(C)C(C)c2ccncn2)cc1F (stereo not drawn)
36 | -8.5% | CCCCNC(=O)N1CCC2(CC1)SCC(=O)N2c1ccc(OC)cc1
37 | -15.8%[70.6 µM] | Cn1cc(-c2ccc3c(n2)CN(Cc2ccc(F)cc2)C(=O)CO3)cn1
38 | 2.3% | O=C(c1cccc(F)c1F)N1CCCC2(CCNCC2)CC1
39 | -23.3% | COc1cccc(CN2C[C@@H]3C(=O)N(Cc4ccc5c(c4)OCO5)C(=O)[C@@H]3C2)c1OC
40 | 0.6% | COC[C@@H]1CN(C(=O)c2nccc3ccccc23)C[C@H]1c1ccccn1
41 | -24.2%[70.6 µM] | O=c1c2nc(Nc3ccc(C(F)(F)F)cc3)ccc2ncn1C1CC1
42 | 3.0%[70.6 µM] | CN(C)c1cccc(Oc2nnnn2[C@H]2CO[C@H]3[C@@H]2OC[C@@H]3N)c1
43 | 6.4% | CCOc1ccccc1C1NC(=O)N(CC(=O)NCc2ccc(OC)cc2)C2=C1C(=O)OC2 (stereo not drawn)
44 | ? | Cc1cc(=O)n(CC(=O)NCCc2ccc(Cl)cc2)c(N2CCc3ccccc3C2)n1
45 | -2.2% | CC1=C[C@@H](CNC(=O)COc2ccccc2)[C@H](C(C)C)C[C@H]1CC(=O)NCCN1CCOCC1

# Further results.
no. | hNpr1 antagonist | Compound
46 | 0.0% | CCc1noc(-c2cn(C3CCN(C(=O)C(C)Oc4ccccc4)CC3)nn2)n1 (stereo not drawn)
47 | -7.0% | CCC1(N2CCN(C(=O)Nc3cccc(F)c3C)CC2)CCN(C(=O)C(C)C)C1 (stereo not drawn)
48 | -19.0% | COc1cccc(-c2nn(-c3ccccc3)c(OC(C)=O)c2-c2ccc(NC(=O)c3ccco3)cc2)c1
49 | 4.9% | Cc1cnn(CCCNC(=O)C2CC(=O)N(C(C)(C)C)C2)c1 (stereo not drawn)
50 | -10.6% | O=C(Nc1cnc(-c2ccc(Cl)cc2)nc1)c1cccc(F)c1
51 | 0.0% | Cc1ccc(C(=O)NC2CCN(c3cc(-c4ccccc4)[nH]n3)CC2)c(C)c1
52 | -10.4% | Cc1ccc(Cn2c(-c3ccc(F)cc3)nc(C)c(CCO)c2=O)cc1C
53 | -11.2% | CCCCCC(=O)Nc1nc2c(s1)C[C@@H]1[C@](C)(CO)[C@H](O)CC[C@@]1(C)[C@@H]2CC(=O)N(C)Cc1ccccc1
54 | 0.8%[70.6 µM] | C[C@H]1[C@@H]2[C@H]3OC(=O)[C@@H](C)[C@@H]3CC[C@@]2(C)CC[C@@H]1NC(=O)c1ccncc1
55 | 2.8% | COc1ccc(-c2noc([C@@H]3CCCN3C(=O)c3cc(OC)c(OC)c(OC)c3)n2)cc1OC
56 | -5.7% | COc1ccc(-c2onc(C)c2C(=O)NCCCCc2ccccc2)cc1
57 | -23.3% | CCOc1ccccc1C(=O)N1CCC[C@H]1c1nc(-c2ccc(OC)cc2)no1
58 | 0.7% | COc1ccccc1CN1C(=O)O[C@@H]2CN(c3nc(C)cc(C)n3)C[C@@H]21
59 | -1.2% | COCCc1noc([C@@H]2CC(F)(F)CN2C(=O)c2ncccc2C)n1
60 | 3.1% | O=C(Cn1ccc(=O)[nH]c1=O)N1C[C@H]2CC[C@@H]1CN(Cc1cscn1)C2

# (continued)
no. | hNpr1 antagonist | Compound
61 | 7.4% | CCc1ccc(NC(=O)c2cc(-c3ccc[nH]3)n[nH]2)cc1
62 | -0.3% | COc1ccc(OCc2nc(C3CN(C(=O)c4cccn4C)C3)no2)cc1
63 | 6.5% | O=C(N[C@H]1CCOC[C@H]1C1CCOCC1)c1cccc(-n2cnnc2)n1
64 | -9.1% | CN1C(=O)C2(CCN(C(=O)COc3ccc(Cl)cc3)C2)c2ccccc21 (stereo not drawn)
65 | -1.4% | Cc1noc(C)c1S(=O)(=O)N1CCC2(CC1)NCCc1c2[nH]c2ccccc12
66 | -3.0% | CN1CC(=O)N(c2cccnc2)Cc2c1ncnc2N1CCN(c2ncccn2)CC1
67 | -0.8%[70.6 µM] | COCc1ccc2c(c1)c(OC(C)(C)C(=O)N1CCN(C)CC1)nn2CCC(C)C
68 | 1.1% | CC1CCN(CC2CCCN(C(=O)c3ccc(F)cc3)CC2)CC1 (stereo not drawn)
69 | -2.8%[70.6 µM] | CN(C)Cc1cn2c(=O)n(C)cc(-c3cccc(OCc4ccccc4)c3)c2n1
70 | 0.3% | COc1ccc(CN2CCN(C3CCN(c4ccccc4)CC3)CC2CCO)cc1C (stereo not drawn)
71 | -4.0% | CC(=O)Nc1ccc(C(=O)NC[C@@H]2C=C(C)[C@H](Cc3nnc(-c4ccccc4F)o3)C[C@H]2C(C)C)cc1
72 | ? | O=C1COc2ccc(NCCc3ccccn3)nc2CN1Cc1ccc(C(F)(F)F)cc1
73 | 0.0% | O=C(c1ccccc1F)N1CCc2nc(-c3ccc(Cl)cc3)nc(-c3ccccc3)c2C1
74 | -0.6% | O=C1NCCOCCCN(S(=O)(=O)c2cccs2)[C@H]2CCCC[C@@H]12
75 | -1.7% | O=C(c1ccc(N2CCCC(O)C2)nc1)N1CCC(N2CCOCC2)CC1 (stereo not drawn)

# The list goes on.
no. | hNpr1 antagonist | Compound
76 | -25.8% | COc1ccc(C(C)NC(=O)CN2C(=O)NC3(CCC(C)CC3)C2=O)cc1 (stereo not drawn)
77 | 3.9% | CCn1cnnc1CCNC(=O)c1cc(=O)n(C)c(=O)n1C
78 | 2µM* | Cc1ccc(C(=O)N2CCC(n3cc(-c4nc(-c5ccccc5)no4)nn3)C2)cc1C (stereo not drawn)
79 | ? | CC(=O)NC[C@@H]1C=C(C)[C@H](Cc2nc3ccc(C)cc3[nH]2)C[C@H]1C(C)C
80 | -12.0% | CCN1c2cc(C(=O)Nc3ccc4c(c3)OCCO4)ccc2C(=O)N2CCCCC21 (stereo not drawn)
81 | -1.3% | COc1ccc(CNC(=O)CC[C@H]2CNC(=O)[C@@H]3[C@@H](CCN3C3CCOCC3)N2C)cc1
82 | -20.2%[70.6 µM] | C#CCNC(=O)C[C@@H]1C[C@@H](C(C)C)[C@H](CNC(=O)NC2CCCCC2)C=C1C
83 | 0.0%[70.6 µM] | Cc1cccc(CN2C[C@@H]3[C@H](C2)N(CC(C)C)C(=O)C(C)(C)[S+]3(=O)[O-])c1
84 | -11.8% | CN(Cc1ccccc1)Cc1cn([C@H]2CO[C@H]3[C@@H]2OC[C@@H]3NC(=O)C2CCCCC2)nn1
85 | 4.8% | CN(C)C[C@@H]1CN(C)C[C@H]1N
86 | 0.8% | CC(C)(O)CCc1cccc(C(=O)NC2CCN(S(C)(=O)=O)CC2)c1
87 | 1.1% | CCCn1cc(-c2ccnc(NCc3c(F)ccc(C)c3F)n2)c(C)n1
88 | 7.7% | Cc1cn2nc(C(=O)NCc3ccccn3)cc2c(N2CCCC2)n1
89 | -9.9%[70.6 µM] | Cc1ccsc1-c1[nH]nc2ncc(-c3ccc(F)cc3)nc12
90 | -2.4% | COCCOC1CCOC2(CCN(S(=O)(=O)c3ccccc3)CC2)C1 (stereo not drawn)

# (listing goes on)
no. | hNpr1 antagonist | Compound
91 | 14.1µM* | O=C(c1ccncc1)N1CCC(Oc2ccc(-c3noc(-c4ccccc4)n3)cc2)C1 (stereo not drawn)
92 | 3.0% | CN(C)c1ccc(C(=O)N[C@H]2CO[C@H]3[C@@H]2OC[C@@H]3n2cc(CC3CCCCC3)nn2)cc1
93 | 3.6% | CN(C)c1ccc(-c2noc(-c3nc(-c4ccccc4F)no3)n2)cc1
94 | ? | Cc1cc(C)c(C)c(S(=O)(=O)NC2CCN(c3ccc(=O)n(CC4CC4)n3)CC2)c1C
95 | -2.1%[70.6 µM] | CC[C@H]1CN(S(=O)(=O)c2ccccc2)CC[C@H]1CC(=O)N(C)CC#N
96 | 2.3% | Cc1cc2nc3n(c(=O)c2n1CC(=O)NC1CCCCC1)CCCCC3
97 | -0.7% | CCn1cc(CN2CCCCCCNC(=O)[C@@H]3CCC[C@@H]32)cn1
98 | ? | Cc1ccc(C(=O)N2CCN(c3cc(-c4cccs4)[nH]n3)CC2)c(C)c1
99 | 5.3% | CC(C)N1C(=O)C2(CCCC2)C1C(=O)NCc1cc(F)cc(F)c1 (stereo not drawn)
100 | -0.3% | COC1CN(c2cccc(F)c2)C12CCN(C(=O)c1cccnc1)CC2 (stereo not drawn)
101 | 7.3% | COCCc1noc([C@@H]2CN(Cc3ccccc3F)C[C@H]2CO)n1
102 | -3.0% | Cc1cnc(-c2ccccc2)n1C1CCCN(C(=O)COc2ccc(F)cc2)C1 (stereo not drawn)
103 | -20.9% | COCCOC1CCOC2(CCN(S(=O)(=O)c3ccc(F)cc3)CC2)C1 (stereo not drawn)
104 | -27.8% | O=S(=O)(c1ccccc1)N1CCC(c2nc(-c3ccccc3)no2)C1 (stereo not drawn)
